Vaccinia Venus: inhibitors of vaccinia virus (Venus reporter); Vaccinia virus Venus reporter expression, fluorescence; Potency, µM (top dose mostly 36.5 µM), for inactives: top-dose activity change, negative = inhibition, hits mostly inhibitors; hit rate 0.46% among 330,000; AID 720580; active means well fitted inhibition curve with a large enough effect; inconclusive means small, poorly fitted or top-dose-only effect; inactive means no such curve, though single readings can be large or run the other way; tested in A549 cells; note: nearly all actives have a fitted effect of over 30% in size; inactives centre near -10
VACV mCherry inh: inhibitors of vaccinia virus infection (mCherry reporter signal). Vaccinia virus mCherry reporter infection, fluorescence; about a quarter of the inactives have no number. Potency, µM (series often up to 36.5 µM), for the others: at the top dose activity change, negative = inhibition, usual class: inhibitors. hit rate 0.63% among 310,000. AID 720579; active = well fitted inhibition curve with a large enough effect; inconclusive = small, poorly fitted or top-dose-only effect; inactive = no such curve, though single readings can be large or run the other way; tested in A549 cells; note: nearly all actives have a fitted effect of over 35% in size; inactives centre near -10
An asterisk follows results filed as active; i = inactive; ? = inconclusive; . = not tested or not shown; & = joins results of further samples; [ ] = another dose, or the depositor's remark. % is set by controls: 0 for no effect and ±100 for the full control effect; potency is the fitted concentration of half-maximal effect.

compound | Vaccinia Venus | VACV mCherry inh
CC(=O)OC1CCC23CC1(C)CCC2C(C)(C)CC3OC(C)=O (centres undefined) | 2.7% | -9.2%
CCOc1ccc(NC(=O)c2ccc(F)cc2F)cc1 | -20.1% | -14.3%
COc1ccc(C2=C(Nc3ccccc3)c3ccccc3C2=O)cc1 | -15.2% | -3.5%
CCCNC(=O)C1(C)CCN(C(=O)c2cc(C(C)(C)C)nn2C)C1 (centres undefined) | -16.6% | i
CCOc1ccccc1N(CC(=O)NCCOC)C(=O)CCC(=O)Nc1ccccn1 | -12.3% | i
N#CC1=C2N=C(N)c3ccccc3N2C2=C(C(=O)CCC2)C1c1ccc(Cl)cc1 (centres undefined) | -15.1% | -17.0%
COc1ccc(OCC(=O)NCC(c2ccc(OC)cc2)N2CCCCC2)cc1 (centres undefined) | -3.7% | -1.9%
CC(=O)C1CCC2C3CCC4=CC(=O)CCC4(C)C3(F)C(O)CC12C (centres undefined) | -15.8% | -7.4%
CC(NC(=O)c1ccccc1Cl)C(=O)NCc1cccs1 (centres undefined) | -1.2% | 0.4%
C[C@H]1CN([C@@H](C)CO)C(=O)c2cc(-c3ccccc3F)cnc2O[C@H]1CN(C)C(=O)C1CCOCC1 | -9.1% | -13.9%
CCOc1ccc(OCC(O)CNC2CCN(Cc3ccccc3)CC2)cc1 (centres undefined) | ? | -13.2%
Cc1noc(C)c1COc1cccc(C(=O)NCc2ccccc2Cl)c1 | -13.4% | -17.0%
O=C(Nc1cccc(-n2cccn2)c1)C1CCCN(Cc2ccc(C#CCCO)cc2)C1 (centres undefined) | -9.6% | -18.4%
CCOC(=O)CCCNC(=O)CCNC(=O)c1ccc(OCC)cc1 | -5.4% | -10.0%
CC1C(=NO)C(C)C(c2ccc(N(C)C)cc2)NC1c1ccc(N(C)C)cc1 (centres undefined) | -10.1% | -12.8%
CCCNC(=S)N1CCC(NC(=O)c2cccc(C)c2)CC1 | -15.7% | i
COc1ccc(NC(=O)c2c(NC(=O)c3cccc(C)c3)sc3c2CCC3)cc1 | -4.9% | -16.3%
O=C1[C@H](Cc2ccccc2)NCCCC[C@H](c2ccco2)N1Cc1ccccc1 | ? | -13.0%&-7.4%
Cc1ccc2nc(Cl)c(/C=C/C(=O)c3ccco3)cc2c1 | -10.3% | i
COc1ccc(-n2cc(-c3ccccc3)c3c(=O)[nH]cnc32)cc1 | ? | ?

Next section.
compound | Vaccinia Venus | VACV mCherry inh
CCOC(=O)C1CCCCN1Cc1nc(N2CCN(C(C)=O)CC2)c2ccccc2n1 (centres undefined) | 8.3% | -8.1%
CCC(=O)Nc1cc(C(F)(F)F)ccc1N1CCCC1 | -6.6% | -15.2%
COc1ccc2c(=O)cc(-c3ccccc3F)oc2c1 | -17.3% | i
CCCCn1c(N)c(N(CCC(C)C)C(=O)c2cc(Cl)nc3ccccc23)c(=O)[nH]c1=O | -25.6% | -12.1%
CC(=O)N1CCN(S(=O)(=O)c2cccc(C(=O)NC3CCCc4ccccc43)c2)CC1 (centres undefined) | -7.3% | .
C[C@@H]1C(=O)N(c2ccccc2)[C@@H]1c1ccncc1 | -2.3% | -4.5%
COc1cc(C(=O)Nc2ccc(S(=O)(=O)N3CCCCC3)cc2)ccc1OCC(=O)N1CCOCC1 | -5.9% | -16.0%
Cc1ccc(S(C)(=O)=NC(=O)c2cc(C)on2)cc1 (centres undefined) | -8.7% | -12.9%
O=C1CN(C(=O)COC(=O)[C@@H]2CCCN2S(=O)(=O)c2ccc(Cl)cc2)c2ccccc2N1 | 1.8% | -9.2%
O=C(CC(c1ccccc1)c1ccccc1O)NCc1ccccc1 (centres undefined) | -0.8% | i
Cc1cc(C)nc(/N=C(\N)Nc2ccccc2-c2ccccc2)n1 | -29.7% | ?
CCOc1ncnc2c1sc1nc(C)cc(C)c12 | -0.5% | -7.8%
CCCCn1c(N)c(N(CC(C)C)C(=O)C2=NN(c3ccccc3)C(=O)CC2)c(=O)[nH]c1=O | -5.9% | -7.7%
O=C(Nc1ccccc1F)N1CCCC1c1cccnc1 (centres undefined) | -4.1%[7.34 µM] | i[7.34 µM]
O=C(COc1ccccc1)NCC(=O)Nc1cccc2ccccc12 | 0.1% | i
O=C(C1COc2ccccc2O1)N1CCN(Cc2ccc3c(c2)OCO3)CC1 (centres undefined) | -15.1% | .
CC(=O)NC(Cc1c[nH]c2ccccc12)C(=O)OCC(=O)N1CCCCCC1 (centres undefined) | -3.1% | i
CCOc1ccc(Oc2nc(NCC(C)C)nc(N3CCOCC3)n2)nn1 | -1.5% | -5.4%
O=C(O)C1CC(=O)N(c2ccc(F)cc2)C1 (centres undefined) | -18.7% | -22.1%
CCOc1ccc(-n2c(C)cc(C(=O)NS(=O)(=O)c3ccc(C)cc3)c2C)cc1 | ? | ?

Not a retest: entries from further up.
compound | Vaccinia Venus | VACV mCherry inh
CCOC(=O)C1CCCCN1Cc1nc(N2CCN(C(C)=O)CC2)c2ccccc2n1 (centres undefined) | 8.3% | -8.1%
CCC(=O)Nc1cc(C(F)(F)F)ccc1N1CCCC1 | -6.6% | -15.2%

One compound at a time, from the list above:
C[C@@H]1C(=O)N(c2ccccc2)[C@@H]1c1ccncc1 is listed as Vaccinia Venus = -2.3%; VACV mCherry inh = -4.5%
CCCNC(=S)N1CCC(NC(=O)c2cccc(C)c2)CC1 is listed as Vaccinia Venus = -15.7%; VACV mCherry inh = i

More entries.
compound | Vaccinia Venus | VACV mCherry inh
O=C(COC(=O)Cc1ccsc1)Nc1ccc(Cl)c(S(=O)(=O)N2CCOCC2)c1 | -7.5% | i
CCC(Nc1ccc(-c2nc(-c3cccnc3)no2)cc1[N+](=O)[O-])c1ccccc1 (centres undefined) | -2.8% | 2.1%
COc1ccc2nc(NC(=O)C3CCCN3S(=O)(=O)c3ccc(C)cc3)sc2c1 (centres undefined) | ? | .
CCC(=O)OCC(=O)Nc1cc([N+](=O)[O-])ccc1Cl | -1.0% | i
CCCCNC(=O)c1ccc(CS(=O)(=O)c2ccccc2OC)o1 | -7.7% | -2.4%
C=CCN1c2ccccc2Sc2cnccc21 | -2.9% | -4.3%
CCCCN1C(Nc2ccccc2)=NC[C@@H]1CC(C)C | -3.9% | i
O=c1[nH]c2ccccc2nc1/C=C/c1ccc(O)cc1 | 116.5%[activator] | -5.3%
CC(NC(=O)c1ccc(S(=O)(=O)C(F)F)cc1)c1ccccc1 (centres undefined) | -4.3% | i
CCOC(=O)C1CCCCN1C(=O)CCc1nnc(-c2ccc3c(c2)OCO3)o1 (centres undefined) | 0.7% | -13.1%
COc1ccc(C(C(=O)NC2CCCCC2)N2CCC3(CC2)OCCO3)cc1 (centres undefined) | -0.2% | -9.1%
CCOC(=O)C1=C(NC(=S)NC(=O)c2ccccc2)c2ccccc2CC12CCCC2 | 1.5% | ?
CN1C(=O)c2ccccc2Sc2ccc(NC(=O)c3ccc(C(F)(F)F)cc3)cc21 | ? | ?
CC(=O)Nc1cccc(C(=O)OCC(=O)NNC(=O)c2cccs2)c1 | -8.1% | -10.0%
COc1ccc2nc(SCC(=O)N3CCN(c4ccc(F)cc4)CC3)c(C#N)cc2c1 | -19.3% | -25.4%
COc1ccc(S(=O)(=O)Nc2cccc(/C=C/C(=O)O)c2)cc1 | -13.2% | i
Cc1cccc(C)c1NC(=O)CSC(=O)c1sc2ccccc2c1Cl | 1.8% | i
COC(=O)C1CCN(C2CN(Cc3ccccc3)S(=O)(=O)C2)CC1 (centres undefined) | 3.6% | 0.9%
COc1ccc(N2C(=O)C(CC(=O)Nc3ccc(F)cc3)N(CCC3=CCCCC3)C2=O)cc1 (centres undefined) | -16.3% | i
COc1ccccc1-c1noc(CCCC(=O)Nc2cccc(C(F)(F)F)c2)n1 | -5.2% | -7.4%

(listing goes on)
compound | Vaccinia Venus | VACV mCherry inh
CSc1ccc(C(O)c2ncc(-c3ccccc3F)[nH]2)cc1 (centres undefined) | -8.1% | 36.6%[activator]
CCOc1ccc(NC(=O)CN(C)C(=O)c2cc(-c3ccncc3)nc3ccccc23)cc1OCC | -23.2% | -9.3%
COc1ccc(-c2csc3nc(C(C)(C)C)oc(=O)c23)cc1OC | -19.9% | -15.0%
CCOC(=O)c1ccc(NC(=O)c2sc3nc4c(cc3c2N)N2CCC4CC2)cc1 | -7.3% | -5.6%
CCOc1ccccc1N/C(=C(/C(Cl)=C(Cl)Cl)[N+](=O)[O-])n1cncn1 | -9.8% | -5.1%
O=C(NCCNC(=O)c1ccc(Cl)cc1Cl)c1cnccn1 | -7.2% | -0.1%
Cc1ccc(C)c(N2CCN(c3c(CN4CCCC4)c(=O)oc4ccccc34)CC2)c1 | -11.9% | -16.7%
O=C1CC(Cc2ccccc2)C(=O)N1Cc1ccco1 (centres undefined) | -7.0% | -15.0%
CCCNCC(=O)Nc1cccc(S(=O)(=O)NC2=NCCCCC2)c1 | 3.7% | -12.5%
CN(C)C1=NC[C@H](Cc2ccccc2)N1CCc1ccc(F)cc1 | -28.8% | ?
CCCOc1ccc2c3c(c(=O)oc2c1OCCC)CCC3 | -25.4% | -9.1%
C/C(=N\OC(=O)c1c(-c2ccccc2Cl)noc1C)c1nccs1 | -14.2% | i
Cc1cccc(NC2=NCCCS2)c1C | -15.1% | i
Cc1cc(C)c(N=C2SCC(=O)N2Cc2ccco2)c(C)c1 | -2.4%[7.34 µM] | -0.7%[7.34 µM]
COC(=O)C1=C(C)NC(C)=C(C(=O)OC)C1c1ccccn1 | -5.8% | i
CCOC(=O)CCCSc1nc(-c2ccc3c(c2)OCO3)cc(C(F)(F)F)c1C#N | -2.3% | i
CCC(C)(C)n1nnnc1CN1CCC(NC(=O)c2ccccc2C)CC1 | -6.3% | -20.1%
CC(=O)Nc1ccc(C(=O)CN2C(=O)NC3(CCCc4ccccc43)C2=O)c(F)c1 (centres undefined) | -1.5% | i
Nc1ccc(-c2c3ccccc3nc3ccccc23)cc1 | -8.1% | -7.0%
O=c1ccc(Cc2ccccn2)n[nH]1 | -11.1% | -14.1%

Remaining list, next part.
compound | Vaccinia Venus | VACV mCherry inh
COc1ccc2c(c1)c1ccc3c(c1n2C)C(=O)C=CC3=O | -16.0% | -20.2%
O=C(NCCCn1ccnc1)c1cc2cc([N+](=O)[O-])ccc2oc1=O | -0.8% | i
CCOC(=O)c1c(C)[nH]c(C)c1S(=O)(=O)N1CCC(C(=O)NCc2ccccc2Cl)CC1 | -13.5% | -4.8%
COc1ccc(CCNC(=O)CSc2nnc(Cc3csc(N)n3)n2C)cc1OC | ? | .
O=C(O)CCn1cc(-c2ccc(Cl)cc2)nc1-c1ccc(Cl)nc1 | 3.3% | i
COc1cc(OC)c2ccc(=O)oc2c1C(CCN1CCCC1)c1ccc(N(C)C)cc1 (centres undefined) | -11.0% | ?
COc1cccc(C2N=C(c3ccccc3C)NO2)c1OC (centres undefined) | -9.4% | ?
CC1(C(=O)NS(=O)(=O)c2cccc(F)c2)CCN1C(=O)Cc1ccccc1Cl (centres undefined) | -2.2% | i
COc1ccc(N2C(=O)CC(Sc3nc(C)c4c(n3)CCCC4)C2=O)cc1 (centres undefined) | ? | i[1.46 µM]
CCOC(=O)C1(C)CCCCN1C(=O)c1ccnc(Cl)c1 (centres undefined) | 5.5% | 0.1%
COc1ccc(CCNC2CC(=O)N(CCc3ccc(OC)c(OC)c3)C2=O)cc1OC (centres undefined) | -5.5% | -1.1%
Cc1ccc(S(=O)(=O)N2C[C@@H](C)[C@]3(C2)[C@H](O)[C@H](OC(=O)Nc2c(C)noc2C)C[C@H]2C(=O)N(c4ccccc4)C(=O)[C@H]23)cc1 | -9.6% | i
CC(C)c1nnc(NC(=O)c2ccc(N3C(=O)CCC3=O)cc2)s1 | -13.5% | -12.8%
COc1ccc(C2(C(=O)N3CCOCC3)CCOCC2)cc1OC | -2.7% | .
COc1ccc(C(=O)NCC(c2cccnc2)N2CCN(c3ccccc3F)CC2)cc1OC (centres undefined) | -22.1% | -9.1%
CCCS(=O)(=O)NC(=O)C1(C)CCN(C(=O)Cc2cccc(OC)c2)C1 (centres undefined) | 11.8% | -6.4%
CCCN1CCN(c2nc(-c3cccs3)nc3ccccc23)CC1 | -19.0% | -5.9%
COc1ccc(C(=O)/C=C/c2ccsc2)cc1CSCC(=O)O | -0.6% | -17.0%
CCOC(=O)c1cccc(NC(=O)C2CCCN(S(=O)(=O)c3c(C)n[nH]c3C)C2)c1 (centres undefined) | -18.9% | ?
COc1ccccc1CN1C(=O)c2ccccc2C1C(=O)NC1CCC(C)CC1 (centres undefined) | -1.6% | -17.2%

The results go on:
compound | Vaccinia Venus | VACV mCherry inh
CC1Cc2ccccc2N1C(=O)CSc1nnc(-c2ccccc2)c(-c2ccccc2)n1 (centres undefined) | -25.3% | -14.4%
O=C(CSc1ncn[nH]1)Nc1nsc(-c2ccccc2)n1 | -10.9% | i
CC(=O)Nc1cccc(NC(=O)c2ccc3c(c2)CCN3S(=O)(=O)c2ccccc2)c1 | -23.1% | -29.5%
Cc1ccc(NC(=O)CSc2nnc(C)n2-c2ccccc2)cc1 | -11.2% | i
COc1cccc(C2CC(c3ccccc3Cl)n3nnnc3N2)c1 (centres undefined) | -22.4% | -27.7%

Bioassay records from PubChem.
